# Bioassay records (PubChem)
# DUX4 inh: inhibitors of DUX4-driven ZSCAN4 reporter expression, primary screen, 293T cells, Gaussia and Italica luciferase; 293T-iDUX4 ZSCAN4-Gaussia luciferase reporter, 24 h; hits give low values; activity change, negative = inhibition, % (concentration not given with the values); 37,000 compounds, 0.8% hits;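 active = -10% or lower and over 25 points stronger than a control reporter; inconclusive = -10% or lower with a smaller gap; inactive = above -10%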;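 also: 0% = median of neutral control wells and -100% = median of positive control wells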
# DUX4 inh difference: further read-out of DUX4 inh, marked with its call; Gaussia minus Italica difference, %; measured here: selective DUX4 reporter inhibition;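 worked out from the two reporters; negative = selective loss of the DUX4 reporter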
# DUX4 inh control: further read-out of DUX4 inh, marked with its call; activity change, negative = inhibition, %; measured here: Italica tet-on control reporter;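 0 = neutral control and -100 = positive control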
# Active calls of the source: *; ? = inconclusive; . = not tested or not shown; ! = not confirmed by another sample. Only part of the results is shown; rates above refer to the full screens.
DUX4 inh	DUX4 inh difference	DUX4 inh control	Compound
-3.6	0.6	-4.2	CN(C)C(=O)c1ccc(-c2ccc([C@@H]3[C@H](C#N)N(C(=O)Cc4ccccn4)[C@H]3CO)cc2)cc1
0.9	-5.3	6.2	CNC[C@@H]1Oc2ccc(NS(=O)(=O)c3ccc(Cl)cc3)cc2CC(=O)N([C@H](C)CO)C[C@@H]1C
1.2	-10.7	12.0	Cc1cccc(-c2ccc(C3[C@@H]4CN(C(=O)Cc5ccncc5)C[C@H]3N4)cc2)c1 (some centres not stated)
2.2	1.4	0.8	CC(C)C(=O)Nc1ccc2c(c1)C(=O)N(C)[C@@H]1CC[C@H](CC(=O)NC3CCCC3)O[C@H]1CO2
-5.7	-5.0	-0.7	CN1C(=O)c2cc(NS(C)(=O)=O)ccc2OC[C@H]2O[C@H](CC(=O)NCc3ccccc3)CC[C@H]21
7.0	0.3	6.7	COCCNC(=O)[C@@H]1[C@@H](CO)[C@@H]2Cn3c(ccc(-c4ccccc4F)c3=O)[C@@H]2N1C(=O)C1CCC1
6.8	-1.3	8.1	O=C(C[C@@H]1CC[C@H]2[C@@H](COC[C@H](O)CN2C(=O)c2ccncc2)O1)NCc1cc(F)cc(F)c1
4.0	16.1	-12.1	CNC[C@H]1Oc2cc(-c3ccc(C(=O)N(C)C)cc3)ccc2S(=O)(=O)N([C@@H](C)CO)C[C@@H]1C
7.5	8.7	-1.1	C[C@H](CO)N1C[C@H](C)[C@H](CN(C)C(=O)Nc2ccc(N3CCCCC3)cc2)OCc2cn(nn2)CCCC1=O
6.6	4.7	2.0	C[C@@H]1CN([C@@H](C)CO)C(=O)c2cc(NC(=O)c3ccccc3)ccc2O[C@@H](C)CCCCO[C@H]1CN(C)C(=O)CCCN(C)C
?	.	.	O=C(Nc1cccc(F)c1)N1CC(=O)N2[C@@H](CO)[C@H](c3ccc(C#CC4CC4)cc3)[C@@H]2C1
4.4	4.4	0.0	C[C@H](CO)N1C[C@H](C)[C@@H](CN(C)C(=O)Nc2ccnc(N3CCOCC3)c2)OCc2cnnn2CCCC1=O

# Next part.
DUX4 inh	DUX4 inh difference	DUX4 inh control	Compound
10.0	6.1	3.8	CC(=O)N1[C@@H]2c3ccc(-c4ccccc4)c(=O)n3C[C@H]1[C@H](CO)[C@H]2C(=O)NC1Cc2ccccc2C1
7.4	8.7	-1.3	CO[C@@H]1CN(C)C(=O)c2ccc(NC(=O)Nc3c(C)noc3C)cc2OC[C@@H](C)N(C)C[C@@H]1C
-2.9	-7.1	4.2	CC(=O)N1[C@@H]2CN(S(=O)(=O)c3ccccc3)c3ccccc3[C@@H]2[C@@H]1CO
?	.	.	COc1cccc(S(=O)(=O)N2CCCCN3[C@H](CO)[C@H](c4ccc(C#CCC(C)C)cc4)[C@H]3C2)c1
2.3	1.0	1.4	C[C@H](O)C#Cc1cnc2c(c1)C(=O)N([C@H](C)CO)C[C@@H](C)[C@@H](CN(C)C(=O)CN1CCOCC1)O2
-0.7	-1.4	0.6	CNC[C@H]1OCCCC[C@H](C)Oc2ccc(NS(=O)(=O)c3cn(C)cn3)cc2C(=O)N([C@@H](C)CO)C[C@@H]1C
0.6	1.1	-0.5	COC(=O)C[C@@H]1CC[C@@H]2[C@@H](COc3ccc(NC(=O)Cc4cccs4)cc3C(=O)N2C)O1
0.7	0.8	-0.1	CNC[C@H]1OCCCC[C@@H](C)Oc2ccc(NC(=O)Nc3cccc4ccccc34)cc2C(=O)N([C@H](C)CO)C[C@@H]1C
-7.2	2.6	-9.8	N#C[C@@H]1[C@@H](c2ccc(-c3ccccc3)cc2)[C@@H](CO)N1C(=O)Cc1ccncc1
?	.	.	CN1c2ccc(-c3ccccc3F)cc2[C@@H]2[C@@H](CCN2C(=O)Nc2ccc(F)cc2)[C@@H]1CO
-0.8	1.1	-2.0	C[C@@H]1CCCCO[C@@H](CN(C)C(=O)Cc2ccccc2)[C@@H](C)CN([C@@H](C)CO)C(=O)c2cc(NC(=O)CCCN(C)C)ccc2O1
9.5	-6.9	16.3	COc1ccc2c3c(n(C)c2c1)[C@@H](CO)NCC31CN(C(=O)Nc2ccc3c(c2)OCO3)C1

# The list continues.
DUX4 inh	DUX4 inh difference	DUX4 inh control	Compound
1.4	4.5	-3.1	CCCN1[C@@H]2c3ccc(C4=CCCC4)c(=O)n3C[C@H]1[C@H](CO)[C@H]2C(=O)NCCOC
4.0	-3.2	7.2	CN(C)C(=O)C[C@H]1CC[C@@H]2[C@H](COC[C@H](O)CN2CC2CCOCC2)O1
8.2	3.2	4.9	Cc1nn(C)cc1NC(=O)C[C@@H]1CC[C@H]2[C@@H](COc3ccc(NC(=O)NC(C)C)cc3C(=O)N2C)O1
?	.	.	C[C@H](C(=O)N(C)C[C@@H]1OCc2ccccc2-c2c(n(C)c3ccccc23)C(=O)N([C@H](C)CO)C[C@H]1C)c1ccccc1
-0.4	1.0	-1.4	CC(C)OC(=O)N(C)C[C@@H]1OCc2cnnn2CCCC(=O)N([C@@H](C)CO)C[C@@H]1C
1.0	-2.0	3.0	C/C=C/c1ccc([C@H]2[C@@H](CO)N[C@@H]2CNC(=O)Cc2ccccc2)cc1
1.9	0.3	1.6	COc1ccccc1-c1ccc([C@H]2[C@@H](C#N)N(C(=O)C3CC3)[C@H]2CO)cc1
2.8	-0.7	3.4	C[C@@H]1CCCCO[C@H](CN(C)CC2CCCCC2)[C@H](C)CN([C@@H](C)CO)C(=O)c2cc(NS(C)(=O)=O)ccc2O1
2.3	-3.4	5.7	COCCNC(=O)[C@H]1[C@H](CO)[C@H]2Cn3c(ccc(-c4ccc(OC)cc4)c3=O)[C@@H]1N2C(=O)NC(C)C
-0.1	-3.1	3.0	COc1cccc(CN(C)C[C@@H]2OCc3cn(nn3)CCCC(=O)N([C@@H](C)CO)C[C@@H]2C)c1
-2.1	-5.2	3.1	C[C@@H]1CN([C@H](C)CO)C(=O)CCCn2cc(nn2)CO[C@@H]1CN(C)C(=O)Nc1cccc(F)c1
9.3	24.5	-15.2	COc1ccc2c3c(n(C)c2c1)[C@@H](CO)N(C(C)=O)CC31CN(S(=O)(=O)c2ccccc2)C1

# Among those listed so far, these contain a halogen.
DUX4 inh	DUX4 inh difference	DUX4 inh control	Compound
0.9	-5.3	6.2	CNC[C@@H]1Oc2ccc(NS(=O)(=O)c3ccc(Cl)cc3)cc2CC(=O)N([C@H](C)CO)C[C@@H]1C
7.0	0.3	6.7	COCCNC(=O)[C@@H]1[C@@H](CO)[C@@H]2Cn3c(ccc(-c4ccccc4F)c3=O)[C@@H]2N1C(=O)C1CCC1
6.8	-1.3	8.1	O=C(C[C@@H]1CC[C@H]2[C@@H](COC[C@H](O)CN2C(=O)c2ccncc2)O1)NCc1cc(F)cc(F)c1
?	.	.	O=C(Nc1cccc(F)c1)N1CC(=O)N2[C@@H](CO)[C@H](c3ccc(C#CC4CC4)cc3)[C@@H]2C1
?	.	.	CN1c2ccc(-c3ccccc3F)cc2[C@@H]2[C@@H](CCN2C(=O)Nc2ccc(F)cc2)[C@@H]1CO
-2.1	-5.2	3.1	C[C@@H]1CN([C@H](C)CO)C(=O)CCCn2cc(nn2)CO[C@@H]1CN(C)C(=O)Nc1cccc(F)c1

# Further entries:
DUX4 inh	DUX4 inh difference	DUX4 inh control	Compound
-3.3	-3.5	0.2	O=C(C1CCOCC1)N1C[C@H]2[C@@H](c3ccccc31)[C@H](CO)N2C(=O)Cc1ccccn1
1.1	0.9	0.2	CO[C@@H]1CN(C)C(=O)c2cc(NC(=O)C3CCCCC3)ccc2OC[C@H](C)N(C(=O)c2ccccc2)C[C@H]1C
-2.1	2.0	-4.0	CC=Cc1ccc2n(c1=O)C[C@H]1[C@H](CO)[C@@H](C(=O)N(C)C)N(CC3CCCCC3)[C@@H]21 (mixture of isomers)
5.4	6.0	-0.7	CN(C)CC#Cc1ccc([C@H]2[C@@H](CO)N3C(=O)CN(C(=O)Cc4ccccc4)C[C@@H]23)cc1
-1.5	-2.4	0.9	O=C(O)C[C@H]1C=C[C@H](NC(=O)Nc2cc(F)ccc2F)[C@@H](CO)O1
3.9	3.6	0.3	CCCNC(=O)N(C)C[C@@H]1Oc2cc(C3=CCCC3)ccc2S(=O)(=O)N([C@H](C)CO)C[C@@H]1C
?	.	.	OC[C@@H]1Nc2ccc(C#Cc3cccc(F)c3)cc2[C@@H]2NCC[C@H]12
7.1	5.9	1.2	COc1ccc2c3c(n(C)c2c1)[C@H](CO)N(C(=O)c1cnccn1)CC31CN(C(C)=O)C1
3.1	3.4	-0.3	CO[C@H](CN(C)S(=O)(=O)c1cn(C)cn1)[C@@H](C)CN(C(=O)Nc1ccc(F)cc1)[C@H](C)CO
?	.	.	CN1c2ccc(-c3ccccc3F)cc2[C@H]2[C@H](CCN2C(=O)c2cccc(F)c2)[C@H]1CO
-0.3	5.6	-5.9	CO[C@@H]1CC[C@H]2CCN(C)C(=O)[C@H](C)N(C)C(=O)c3cc(C#N)ccc3OC[C@@H]1O2
1.0	-1.1	2.1	COc1ccc(NC(=O)Nc2cccc3c2O[C@H](CN(C)C(=O)NC2CCCCC2)[C@H](C)CN([C@H](C)CO)C3=O)cc1

# Reprinted from the entries so far, two compounds:
DUX4 inh	DUX4 inh difference	DUX4 inh control	Compound
7.1	5.9	1.2	COc1ccc2c3c(n(C)c2c1)[C@H](CO)N(C(=O)c1cnccn1)CC31CN(C(C)=O)C1
3.1	3.4	-0.3	CO[C@H](CN(C)S(=O)(=O)c1cn(C)cn1)[C@@H](C)CN(C(=O)Nc1ccc(F)cc1)[C@H](C)CO

# (continued)
DUX4 inh	DUX4 inh difference	DUX4 inh control	Compound
?	.	.	O=C1CN(S(=O)(=O)Cc2ccccc2)C[C@@H]2[C@@H](c3ccc(C#Cc4ccccc4)cc3)[C@H](CO)N12
?	.	.	COc1cccc(CN(C)C[C@H]2OCc3ccccc3-c3c(n(C)c4ccccc34)C(=O)N([C@@H](C)CO)C[C@H]2C)c1
?	.	.	COc1ccc2c3c([nH]c2c1)[C@@H](CO)N(Cc1ccccc1OC)CC31CN(C(C)=O)C1
0.4	-1.5	2.0	O=C(C[C@@H]1CC[C@@H]2[C@H](COC[C@H](O)CN2C(=O)Nc2ccc(F)cc2)O1)NCC1CC1
-2.5	-4.6	2.1	O=C(NCC[C@@H]1CC[C@@H](NS(=O)(=O)c2ccc(Cl)cc2)[C@@H](CO)O1)Nc1ccc(F)cc1
9.8	7.9	1.9	CN(C)CC(=O)Nc1ccc2c(c1)[C@H]1C[C@H](CC(=O)NCc3ccncc3)O[C@@H](CO)[C@H]1O2
-3.1	-2.0	-1.1	CN(C[C@H]1N[C@@H](CO)[C@@H]1c1ccc(C2=CCCC2)cc1)C(=O)c1ccncc1
-0.6	-3.1	2.5	CN(C)C(=O)C[C@H]1CC[C@H]2[C@@H](COc3ccc(NC(=O)Nc4cccc(Cl)c4)cc3C(=O)N2C)O1
0.2	-0.4	0.6	CCNC(=O)[C@H]1[C@H](CO)[C@H]2Cn3c(ccc(-c4ccc(F)cc4)c3=O)[C@@H]1N2C(C)=O
-4.8	-1.6	-3.2	COCCNC[C@H]1[C@H](c2ccccc2)[C@H](CO)N1c1nc(C)c(C)s1
-3.6	1.4	-5.0	C[C@@H]1CN([C@@H](C)CO)C(=O)c2cc(NC(=O)Nc3cccc4ccccc34)ccc2O[C@@H](C)CCCCO[C@@H]1CN(C)C(=O)CCCN(C)C
?	.	.	COc1ccc(NC(=O)N2CC(=O)N3[C@H](C2)[C@H](c2ccc(-c4ccc(C)cc4)cc2)[C@@H]3CO)cc1

# (cont.)
DUX4 inh	DUX4 inh difference	DUX4 inh control	Compound
-0.6	1.7	-2.3	C[C@@H]1CN([C@H](C)CO)S(=O)(=O)c2ccc(Br)cc2O[C@H]1CN(C)Cc1cccc(C(=O)O)c1
-41.1*!	-31.7*	-9.4*	N#Cc1cccc(-c2ccc(C3[C@@H]4CN(S(=O)(=O)c5ccccc5)C[C@H]3N4)cc2)c1 (some centres not stated)
?	.	.	Cc1ccc(-c2ccc([C@H]3[C@H]4CN(S(=O)(=O)c5ccccc5C)CCCCN4[C@H]3CO)cc2)cc1
?	.	.	COc1ccc2c3c([nH]c2c1)[C@H](CO)N(Cc1cccc(F)c1)CC31CCN(CC2CC2)CC1
4.7	-3.8	8.5	O=C(CC1CC1)Nc1ccc2c(c1)[C@H]1C[C@H](CC(=O)NC3CCCCC3)O[C@@H](CO)[C@H]1O2
7.4	4.4	3.0	COCC(=O)Nc1ccc2c(c1)[C@H]1C[C@H](CC(=O)O)O[C@H](CO)[C@H]1O2
4.4	1.2	3.1	CCN1[C@H](C(=O)OC)[C@@H](CO)[C@@H]2Cn3c(ccc(-c4ccc(F)cc4)c3=O)[C@@H]21
6.6	11.3	-4.7	CN1C(=O)c2cc(NC(=O)c3ccc4c(c3)OCO4)ccc2OC[C@H]2O[C@@H](CC(=O)O)CC[C@@H]21
3.9	-2.7	6.6	COCC#Cc1ccc([C@@H]2[C@@H](CO)N3C(=O)CN(C(=O)C4CCCCC4)C[C@@H]23)cc1
?	.	.	COc1ccc2c3c([nH]c2c1)[C@@H](CO)N(Cc1ccccc1)CC31CN(C)C1
-2.5	-3.1	0.6	CO[C@@H]1CC[C@H]2CCN(C)C(=O)[C@@H](C)N(C)C(=O)c3cc(C#N)ccc3OC[C@@H]1O2
1.0	3.8	-2.8	CO[C@H]1CN(C)C(=O)c2ccc(NC(=O)Nc3c(C)noc3C)cc2OC[C@H](C)N(CCC(F)(F)F)C[C@@H]1C
2.9	0.9	2.1	O=C(C[C@H]1CC[C@@H]2[C@H](COC[C@H](O)CN2C(=O)C2CCOCC2)O1)NCc1ccncc1
7.7	-0.9	8.6	O=C(CN1CCOCC1)N1CCCCN2[C@H](CO)[C@@H](c3ccc(-c4ccccc4F)cc3)[C@H]2C1
-4.3	11.7	-16.0	C[C@@H]1CN([C@H](C)CO)C(=O)c2c(c3ccccc3n2C)-c2ccccc2CO[C@H]1CN(C)C(=O)Nc1ccccc1C(F)(F)F
